Source: PubChem BioAssay
VACV mCherry inh = qHTS for Stage-Specific Inhibitors of Vaccinia Orthopoxvirus: mCherry Reporter Primary qHTS | Vaccinia virus mCherry reporter infection, fluorescence; about a quarter of the inactives have no number | Potency, µM (top dose mostly 36.5 µM), without a hit: at the highest dose activity change, negative = inhibition, usual class: inhibitors | actives 0.63% (n = 310,000) | AID 720579, 2013; active = well fitted inhibition curve with a large enough effect; inconclusive = small, poorly fitted or top-dose-only effect; inactive = no such curve, though single readings can be large or run the other way; tested in A549 cells; also: nearly all actives have a fitted effect of over 35% in size; inactives centre near -10
VACV Venus inh = qHTS for Stage-Specific Inhibitors of Vaccinia Orthopoxvirus: Venus Reporter Primary qHTS. actives 0.46% (n = 330,000). AID 720580, 2013. Potency, µM (series often up to 36.5 µM), inactives show top-dose activity change, negative = inhibition, hits mostly inhibitors. Vaccinia virus Venus reporter expression, fluorescence; active means well fitted inhibition curve with a large enough effect; inconclusive means small, poorly fitted or top-dose-only effect; inactive means no such curve, though single readings can be large or run the other way; tested in A549 cells; also: nearly all actives have a fitted effect of over 30% in size; inactives centre near -10
* marks the source's active call; other numbers are inactive results; i = inactive; ? = inconclusive; / = not tested or not shown; & = joins results of further samples; [ ] = another dose, or the depositor's remark. % is scaled to controls: 0 for no effect and ±100 for the full control effect; potency is read from the fitted curve at half-maximal effect.

compound	VACV mCherry inh	VACV Venus inh
CCOc1ccc(N2CC(C(=O)Nc3ncccc3C)CC2=O)cc1 (centres undefined)	-5%	-8%
CC(=NNC(=S)N1CCC1)c1ccccn1	?	?
CC1(C)C(=O)CC[C@]2(C)C3C(=O)C=C4[C@H]5C[C@@](C)(C(=O)O)CC[C@]5(C)CC[C@]4(C)[C@]3(C)CC[C@@H]12 (some centres undefined)	i	-16%
N/C(=N\OC(=O)CCCOc1ccccc1)c1cccc(Br)c1	-6%	20%
CCN(CC)CCCNc1nc2ccccc2c2nc(-c3ccncc3)nn12	?	11µM*
COc1ccc(NC(=O)CN(C)C(=O)c2cc(-c3ccc(OC)cc3)nc3ccccc23)cc1	-9%	-14%
O=C(Nc1ncccc1O)c1ccc(S(=O)(=O)Nc2ccccc2)cc1	?	-23%
CCc1ccc(NC(=O)Cc2c(C(=O)O)n(C)c3ccccc23)cc1	i	-5%
CC(C)N(C(=O)CSc1nnc(NC(=O)C2CCC2)s1)C(C)C	-21%	-10%
C[C@H]1CCC(=O)N([C@H](CC#N)Cc2ccccc2)CC1	-1%	2%&-3%
Cc1ccc(N(CC(=O)NCc2ccccc2Cl)S(=O)(=O)c2c(C)noc2C)cc1	?	-7%
Cc1ccc(SCc2cc(=O)[nH]c(Nc3nc(C)c4ccccc4n3)n2)cc1	-2%	-14%
Cc1ccc(NC(=O)COC(=O)CN2C(=O)c3ccccc3C2=O)cc1S(=O)(=O)N(C)C	-4%	-10%
COc1cc(NC(=O)C2CCC(=O)N2S(=O)(=O)c2ccc(C)cc2)cc(OC)c1 (centres undefined)	-18%	-5%
C[C@@H]1CN([C@H](C)CO)C(=O)CCCn2cc(nn2)CO[C@H]1CN(C)C(=O)OCc1ccccc1	?	-16%
COc1cc(C=O)c(Br)cc1OCc1ccc(C)cc1	-11%	-1%
Cc1ccc(SCC(=O)NC(=O)NCCC(C)C)c(C)c1	i	-14%
N#Cc1c2c(c(-n3cnc4ccccc43)n3c1nc1ccccc13)CCC2	/	-4%
Cc1nc2c(C)cccc2c2c1CCS2	-11%	6%
Cc1cc(C)cc(NC(=O)Cn2c3ncccc3c(=O)n2-c2ccc(C)c(C)c2)c1	-9%[7.34 µM]	-7%[7.34 µM]
CCC(=O)Nc1ccc(S(=O)(=O)N2CCOCC2)cc1	i	-10%
CCCCC/C=C\C/C=C\C/C=C\C/C=C\CCCC(=O)O[C@@H](CO)COCCCCCCCCCCCCCCCC	-17%[3.33 µM]	-9%[3.33 µM]
CN(C)C(=O)Oc1ccc2nnc3ccnn3c2c1	-4%	5%
CN(c1ccc(OCC(=O)NCc2cccnc2)cc1)S(=O)(=O)c1ccc(Cl)cc1	-17%	-9%
O=C(CSc1cccc[n+]1[O-])N1CCCCCC1	i	5%
COc1cc(/C=N/NC(=O)c2c(-c3ccccc3)noc2C)ccc1O	/	-17%
COCCNc1nc(-c2cc(F)ccc2C)c2sc(-c3ccccc3)cc2n1	?	-26%
CCOC(=O)NC1CCc2cc(OC)c(OC)c(OC)c2-c2ccc(SC)c(=O)cc21 (centres undefined)	i	-36%
Cc1ccc(-c2nnc(Nc3ccc(Cl)cc3)c3ccccc23)cc1S(=O)(=O)N1CCOCC1	-28%	-24%
CCc1nnc(NC(=O)c2nc(S(=O)(=O)Cc3cccc(C)c3)ncc2Cl)s1	10%[7.34 µM]	2%

An excerpt of these results, as labelled records.
mol: CN(C)C(=O)Oc1ccc2nnc3ccnn3c2c1
  VACV mCherry inh: -4%
  VACV Venus inh: 5%
mol: CN(c1ccc(OCC(=O)NCc2cccnc2)cc1)S(=O)(=O)c1ccc(Cl)cc1
  VACV mCherry inh: -17%
  VACV Venus inh: -9%

Of the compounds above, these contain bromine:
compound	VACV mCherry inh	VACV Venus inh
N/C(=N\OC(=O)CCCOc1ccccc1)c1cccc(Br)c1	-6%	20%
COc1cc(C=O)c(Br)cc1OCc1ccc(C)cc1	-11%	-1%

Following part.
compound	VACV mCherry inh	VACV Venus inh
O=C(NC(c1cccnc1)c1ccc2c(c1)OCO2)C1CCN(CCOc2ccc(Cl)cc2Cl)CC1 (centres undefined)	i	-6%
NS(=O)(=O)c1ccc(CCNC(=O)CSc2ccc3ccccc3c2)cc1	i	-9%
Cc1ccc(C(=O)Nc2nc3ccccc3n2CCN2CCCC2)cc1	/	?
CCOC(=O)N1CCN(C(=O)CCl)CC1	2.2µM*	3.2µM*
CCCN(CCC)CCNC(=O)Cn1cc2c(n1)-c1c(oc(C(=O)N3CCCC3)c1C)CC2	-21%&-13%	-24%&-11%
CN(CCOc1ccc(Cl)cc1)CC(O)c1ccccc1 (centres undefined)	2%	-4%
Cc1ccc2nc(-c3ccco3)c(Nc3ccccc3)n2c1	-20%	-5%&-12%
CC(C)CN(C(=O)COC(=O)C1CC1)c1c(N)n(Cc2ccccc2)c(=O)[nH]c1=O	-6%	-3%
N#Cc1ccccc1CN1C(=O)NC2(CCCCCC2)C1=O	i	-21%
O=C(CCNC(=O)c1ccc(Br)cc1)Nc1cccc(S(=O)(=O)N2CCCCCC2)c1	-16%	-18%
CCc1ccc(C(=O)CSc2nc(N)cc(=O)[nH]2)cc1	-1%	-13%
OC(COCc1ccc2c(c1)OCO2)CN1CCCCC1 (centres undefined)	i	-3%
O=C(O)CCCCCNC(=O)c1ccccc1	-15%	?
COc1ccc(F)cc1-c1cc(C(=O)Nc2ccc(C)c(NS(C)(=O)=O)c2)[nH]n1	12%	-20%
COc1ccc(S(=O)(=O)N2CCC(C(=O)NCc3ccncc3)CC2)cc1OC	-7%	-2%
Cc1cccc(C(=O)NC(=S)NCc2cccnc2)c1	-13%	-1%
CC(C)CC(NC(N)=O)C(=O)NCCc1ccc(Cl)cc1 (centres undefined)	-10%	-5%
Cn1ccc2cc(S(=O)(=O)N3CCN(C(=O)Nc4cccc(F)c4)CC3)ccc21	-13%	-7%
CCOc1ncccc1C(=O)Nc1ncc(C)s1	-10%	-8%
O=C(CSC1=NCCN1)NC(c1ccccc1)c1ccccc1	-5%	-14%
COc1ccc(N(CC(=O)NCCc2ccc(C)cc2)S(=O)(=O)c2c(C)nn(C)c2C)cc1	-5%	-5%
O=C(NCc1cccs1)c1ccc(CS(=O)(=O)c2ccc(Cl)cc2)o1	-16%	-14%
O=C(CSc1nnc2ccccn12)Nc1ccccc1[N+](=O)[O-]	i	-5%
COC(=O)C1CCN(Cc2nnc(-c3ccccc3)o2)CC1	i	4%
CCOc1ccc(NC(=O)CCc2c(C)nc3cc(-c4ccccc4OC)nn3c2C)cc1	-11%	-13%
Cc1ccc(NC(=O)CN(C)C(=O)c2n[nH]c(=O)c3ccccc23)cc1	-6%	-6%
O=C(CC(CC(=O)c1ccc(Br)cc1)c1cccnc1)c1ccc(Br)cc1	i	16%
COc1ccc(C)cc1S(=O)(=O)Nc1ccc(F)c(Cl)c1	-25%	-13%
Cn1c(=O)[nH]c(=O)c2c1nc(N1CCN(Cc3ccccc3)CC1)n2CCCc1ccccc1	-13%	-26%
C=CC[C@H](CC(=O)NCCO)C(=O)NCCOC(=O)[C@@H](CC=C)Cc1ccc(F)cc1	-24%	-6%

Part of the list above in order of molar mass, lowest first.
compound	VACV mCherry inh	VACV Venus inh
CCOc1ncccc1C(=O)Nc1ncc(C)s1	-10%	-8%
Cc1ccc2nc(-c3ccco3)c(Nc3ccccc3)n2c1	-20%	-5%&-12%
O=C(NCc1cccs1)c1ccc(CS(=O)(=O)c2ccc(Cl)cc2)o1	-16%	-14%
COc1ccc(F)cc1-c1cc(C(=O)Nc2ccc(C)c(NS(C)(=O)=O)c2)[nH]n1	12%	-20%

Later entries:
compound	VACV mCherry inh	VACV Venus inh
O=S(=O)(c1cccc(-c2nnc(SCc3nc4ccccc4s3)o2)c1)N1CCOCC1	13µM*	?
O=C(CN(CC1CCCO1)C(=O)CNS(=O)(=O)c1ccccc1)NCc1ccccc1 (centres undefined)	/	-1%
COc1cccc(-n2c(COc3ccc(C)cc3)nnc2SCC(=O)O)c1	-10%	1%
O=c1[nH]nc(-c2ccccc2)c2ccccc12	i	-9%
CCOC(=O)C1=C(C)NC(C)=C(C(=O)OCC)C1C(=O)OCC(=O)N1CCC(C)CC1	-3%	-19%&-21%
Nc1nc(SCC(=O)N2CCCc3ccccc32)n(-c2ccccc2)n1	i	-14%
COc1ccccc1-c1cncnc1NCCc1cnc[nH]1	-6%	-21%
O=C(Nc1nnc(-c2ccc(F)cc2)s1)c1c(F)cccc1Cl	-1%	-11%
COc1cc2c(cc1/C=C/[N+](=O)[O-])OCO2	?	?
COc1ccc(C2=NCCn3nc4cc(C(F)(F)F)ccc4c32)cc1	-4%	-14%
O=C(O)c1cccc(C(=O)Nc2cccc(NC(=O)C3CCCO3)c2)c1 (centres undefined)	i	-15%
O=C(Nc1ccc2c(c1)Cc1ccccc1-2)c1cc2ccccc2o1	-14%	-1%
O=C(Nc1ccccc1)Nc1ncc(C(F)(F)F)cc1Cl	-29%	-27%
O=S(=O)(N1CCN(c2nc(-c3cccs3)nc3ccccc23)CC1)C(F)(F)F	-3%	-19%
CCOc1ccc(-c2cn3ccccc3n2)cc1	i	?
COc1ccc(C(=O)CSc2[nH]c(=O)cc(C(F)(F)F)c2C#N)cc1	i	-15%
CSc1nc(O)c(C(c2cccc([N+](=O)[O-])c2)c2c(O)nc(SC)[nH]c2=O)c(=O)[nH]1	-19%	-26%
CC12C=CC3(O1)C(C(=O)N(c1cccnc1)C3C(=O)NC1CCCCC1)C2C(=O)Nc1ccccc1 (centres undefined)	-8%	-2%
Cc1cc(C)nc(NS(=O)(=O)c2ccc(N3C(=O)C4CCCCC4C3=O)cc2)n1 (centres undefined)	i	-5%
CO[C@H]1C=CO[C@@]2(C)Oc3c(C)c(O)c4c(O)c(c5c(nc6cc(C)ccn65)c4c3C2=O)NC(=O)/C(C)=C\C=C[C@H](C)[C@H](O)[C@@H](C)[C@@H](O)[C@@H](C)[C@H](OC(C)=O)[C@@H]1C	-5%	-27%
Cc1ccc2nc(N(CCN(C)C)C(=O)C3=COCCO3)sc2c1	i	-14%
CCOc1ccc(S(=O)(=O)NC(C)(C)C)cc1-c1nc2c(C(C)(C)C)nn(C)c2c(=O)[nH]1	?	?
COc1ccccc1CNC(=O)Cn1cccc1C(=O)c1ccccc1	i[7.34 µM]	0%[7.34 µM]
O=C(C[C@@H]1C/C=C\C[C@@H](NC(=O)OCC2c3ccccc3-c3ccccc32)C(=O)OCCNC1=O)N[C@@H](CO)Cc1ccccc1	-33%	-21%
Cc1ccc(NC2CCCN(C(=O)CCc3cn[nH]c3)C2)cc1C (centres undefined)	i	-14%
CC(C)(C)NC(=O)C(=O)NNC(=O)c1cccc(Br)c1	-3%	2%
COc1cc(NC(=O)CSc2nnc3c(n2)[nH]c2ccc(OC)cc23)cc(OC)c1	-10%	-10%
O=C(NCC(=O)N1CCN(c2ccccc2F)CC1)c1cccs1	-14%	-11%
CC(Cc1cccs1)NC(=O)NC1CCCCC1 (centres undefined)	-6%	-11%
O=C(Nc1ccccc1C(=O)N1CCCCC1)c1ccccc1C(F)(F)F	i	-8%
COc1ccc(C(C)=O)cc1Cn1c(C)c(C(=O)NCc2cccc(C)c2)sc1=O	23%	-4%
CCN(C(=O)COc1ncnc2scc(-c3ccc(F)cc3)c12)C1CCS(=O)(=O)C1 (centres undefined)	-14%	-10%
Cc1cc(-c2ccc(C)c(S(=O)(=O)N3CCOc4ccc(Cl)cc43)c2)on1	?	-20%
CCOc1ccc(N(C(C)C(=O)Nc2cc(Cl)ccc2OC)S(C)(=O)=O)cc1 (centres undefined)	?	?
CCc1ncc(C(=O)c2ccc(OC)cc2)n1C	-15%	-8%
Nc1ccn([C@@H]2O[C@H](CNS(=O)(=O)c3cc4ccccc4s3)[C@@H](O)[C@H]2O)c(=O)n1	-23%	-5%
CN(C(=O)c1cccc(NC(=O)Cc2cccc(NC(=O)C3CCCN(C(=O)c4ccccc4)C3)c2)c1)C1CC1 (centres undefined)	-1%	-3%
CN(Cc1ccccc1)C(=O)Nc1ccc2c(c1)N(C)C(=O)c1ccccc1S2	-17%	-7%
O=C(CC[C@H]1O[C@@H](n2ccc(=O)[nH]c2=O)[C@H](O)[C@@H]1O)NCC(c1ccccc1)c1ccccc1	33%[activator]	7%
Nc1ncnc(NC2CCS(=O)(=O)C2)c1[N+](=O)[O-] (centres undefined)	i	-9%
COC(=O)c1nnn(-c2ccc(F)c(Cl)c2)c1C(=O)OC	i	-4%
COCCNCCOc1ccccc1-c1ccccc1	-18%	-13%
CCOC(=O)c1c(NC(C)=O)c2c3c(sc2n1Cc1nc(-c2ccccc2Cl)oc1C)CCCC3	-13%	-16%
Cc1cc(NC(=O)c2cnn(-c3ccccc3)c2-n2cccc2)ccc1Br	-13%	-9%
